PMP22 txn – PMP22 gene transcription modulation; S16 Pmp22-F2sN Schwann cells (luciferase reporters placed in the Pmp22 gene), FLuc/NLuc coincidence luminescence, 24 h; Potency, µM (series often up to 57.5 µM), for the others: at the highest dose activity change, negative = inhibition, hits mostly inhibitors; 43,000 compounds, 2% hits; AID 1508649; active = clear falling dose curves in both reporters; inconclusive = both reporters move, but less clearly or upward; inactive = either reporter flat; the % is the NLuc reporter signal; further: on the % scale 0 is the no-effect control and ±100 the full control effect; some results filed as inactive show a strong effect at the top dose
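S16 Schwann cells carrying FLuc/NLuc coincidence reporter in the Pmp22 3' UTR treated with compound 24 h at 37C; FLuc then NLuc luminescence read sequentially by dual-luciferase reagents.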
HTT promoter inh – inhibitors of huntingtin promoter activity; AID 1508623; HEK293 HTT promoter firefly luciferase reporter (activity 0% = vehicle and -100% = no light), 24 h; Potency, µM (doses to about 57.5 µM), without a hit: at the highest dose activity change, negative = inhibition, actives largely listed as inhibitors; 48,000 compounds, 0.93% hits; active means well fitted inhibition curve with a large enough effect; inconclusive means small, poorly fitted or top-dose-only effect; inactive means no such curve, though single readings can be large or run the other way; further: nearly all actives have a fitted effect of over 50% in size
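HEK293 luciferase promoter-reporter cells (2,500/well) plated 24 h, then compounds added at up to 57.5 uM final for 24 h at 37 °C. Firefly luminescence by Dual-Glo, normalized to vehicle (0%) and zero RLU (-100%).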
* hit, by the source's call; ? = inconclusive; nt = not tested or not shown; & = joins results of further samples; [ ] = another dose, or the depositor's remark. Potency means the concentration at half of the fitted maximal effect.

Start of the listing, in advance (3 entries):
SMILES	PMP22 txn	HTT promoter inh
COc1cc(C(=O)NCC(c2cccnc2)N2CCc3ccccc3C2)cc(OC)c1OC (stereo not drawn)	0%	-14%
Cc1ccc(C)c(N2CCN(C(=O)NCc3noc4ccccc34)CC2)c1	3%	?
COc1ccc(-n2c(SCc3ccccc3F)nc3c([nH]c4ccccc43)c2=O)cc1OC	?	-28%

Main list, from the start:
SMILES	PMP22 txn	HTT promoter inh
COc1cc(C(=O)NCC(c2cccnc2)N2CCc3ccccc3C2)cc(OC)c1OC (stereo not drawn)	0%	-14%
Cc1ccc(C)c(N2CCN(C(=O)NCc3noc4ccccc34)CC2)c1	3%	?
COc1ccc(-n2c(SCc3ccccc3F)nc3c([nH]c4ccccc43)c2=O)cc1OC	?	-28%
CCCCN(C)C(=O)Cn1cnc2sc(C)c(S(=O)(=O)N3CCC(C)CC3)c2c1=O	6%	-22%
CCCOc1ccc(CNC(=O)c2ccc(-n3c(C)cc4c3CCC(C)C4)cc2)cc1 (stereo not drawn)	?	-10%
COc1ccc(NS(=O)(=O)c2cnc(N)nc2)cc1Cl	3%	-12%
COc1cccc(-n2cc(C(=O)NCc3cccc(Cl)c3)c3ccccc3c2=O)c1	-9%	-23%
COC(=O)c1cccc(NC2=NS(=O)(=O)c3ccccc32)c1	-24%	-13%
COc1ccc(-c2nc3scc(CCNS(=O)(=O)c4ccc(Oc5ccccc5)cc4)n3n2)cc1	-28%	-30%
Cc1ccc(-c2nc(SCC(=O)NCC3CCCO3)c3c(=O)n(C)c(=O)n(C)c3n2)cc1 (stereo not drawn)	-17%	3%
CCOC(=O)N[C@@H]1CC[C@@H]2[C@@H](C1)C[C@H]1C(=O)O[C@H](C)[C@H]1[C@@H]2C=Cc1ccc(-c2cccc(F)c2)cn1	nt	?
Cc1cccc(NS(=O)(=O)c2ccc3c(c2)OCC(C(=O)N2CCCC2)O3)c1C (stereo not drawn)	-10%	-27%
COc1ccc(C(CC(=O)Nc2ncccc2C)N2Cc3ccccc3C2=O)cc1OC (stereo not drawn)	-3%	-12%
Cc1cccc(C2C=C(c3ccc(C)c(C)c3)Nc3nnnn32)c1 (stereo not drawn)	12%	-12%
COc1ccc(C(=O)NCc2nnnn2-c2ccc(C)c(C)c2)cc1	?	-16%
CCC1CCc2nc3sc(C(=O)Nc4ccc(C)cc4C)c(N)c3cc2C1 (stereo not drawn)	?	-10%
CC(C)NC(=O)c1ccc(-n2c(-c3ccccc3)cc3c2CCCC3)cc1	14µM*	15%
COc1ccc(S(=O)(=O)Nc2cc(S(=O)(=O)c3ccccc3)c(O)c(C)c2C)cc1	-2%	-17%
Cc1ccsc1CCN1C(=O)N(c2ccccc2)C(=O)C1CC(=O)Nc1ccc(F)cc1 (stereo not drawn)	10%	?
Fc1ccc(-c2csc(=Nc3cccc(C(F)(F)F)c3)n2Cc2ccc3c(c2)OCO3)cc1	?	?
COc1cccc(CNC(=O)Cn2ncn3nc(-c4cccs4)cc3c2=O)c1OC	?	-14%
Cc1cccc(-c2nc(C)c(CCNC(=O)C(=O)Nc3ccccc3C#N)s2)c1	?	-15%
COc1ccc(NC(=O)/C(C#N)=C/c2cc(C)n(-c3ccc(F)cc3)c2C)cc1	-3%	5%
Cc1ccc(-c2n[nH]c3c2C(c2ccc(C(C)(C)C)cc2)NC3=O)cc1 (stereo not drawn)	-2%	-15%
CCc1ccc2oc(C(=O)Nc3cc(C)ccc3C)cc(=O)c2c1	-13%	6%[11.5 µM]

Carrying on.
SMILES	PMP22 txn	HTT promoter inh
Cc1ccc(CN2C(=O)SC(Nc3ccc(Cl)cc3)C2=O)cc1 (stereo not drawn)	?	-26%
CCOCCCNC(=O)CN1C(=O)c2cccnc2Sc2ccccc21	?	-4%
CCOc1ccc(CNC(=O)C2CCN(C(=O)c3sccc3-n3cccc3)CC2)cc1	-27%	-25%
COc1cc(C(=O)Nc2ccc(Cl)c(-c3nc4ncccc4o3)c2)cc(OC)c1OC	?	4%
CCOc1cc(C)c(C(C)C)cc1S(=O)(=O)n1ccnc1CC	-26%	?
CCOC(=O)N1CCc2c(sc3c2c(=O)n(-c2ccc(CC)cc2)c(=O)n3CC(=O)c2ccccc2)C1	-4%	?
COc1ccc(CNC(=O)CCc2nnc3n(C)c(=O)c4sccc4n23)cc1	-5%	-4%
COc1cc2nc(Nc3ccc(F)cc3)nc(N)c2cc1OC	?	-8%
CC(=O)Nc1cccc(-n2cc3c(c2-c2ccccc2Cl)c(=O)n(C)c(=O)n3C)c1	?	1%
CC(C)c1ccc(Nc2nc3c(S(=O)(=O)c4ccc(Br)cc4)nnn3c3ccsc23)cc1	-7%	-17%
Cc1cccc(NC(=O)Cn2c(=O)n(Cc3ccc(C(=O)NCc4ccc5c(c4)OCO5)cc3)c(=O)c3ccccc32)c1	?	-8%
CCc1nn2c(=O)c(S(=O)(=O)Nc3ccc(C(C)C)cc3)c(C)nc2s1	-23%	?
COc1ccc(Cl)cc1N(C)C(=O)Cn1cnc2sc(C)c(S(=O)(=O)N3CCN(c4ncccn4)CC3)c2c1=O	-8%	-13%
COc1ccccc1/C=C/c1nc2ccccc2n1C(C)C	?	12%
COc1ccc(Cl)cc1NC(=O)c1nn(-c2ccc(C)cc2)c(=O)n(C)c1=O	-38%	1%
O=C(Nc1ccc(F)cc1)N1CCN(C(=O)c2nsc3ccccc23)CC1	3%	-7%
CN1CCN(c2cccc(Nc3nc4c(-c5ccc(S(C)(=O)=O)cc5)cccn4n3)c2)CC1	nt	2%
CCOc1ccccc1-c1noc(CSc2nnc(-c3ccncc3)n2-c2ccc(F)cc2)n1	7%	?
COc1ccc(CNC(=O)CC2Oc3ccc(C)cc3NC2=O)cc1 (stereo not drawn)	-9%	-1%
Cc1oc(-c2ccc(C(=O)Nc3ccc(F)cc3)cc2)nc1COc1ccccc1	5%	?
CCOc1ccc(C(=O)Cn2c(=O)n3nc(CCn4nc(C)cc4C)nc3c3cc(OC)c(OC)cc32)cc1	0%	-18%
Cc1cc(OCC(=O)Nc2sc3c(c2C(N)=O)CCCC3)ccc1C(C)C	-6%	-13%
Cc1ccc(-c2nnc(Nc3ccc(O)cc3)c3ccccc23)cc1S(=O)(=O)NCc1nc2ccccc2[nH]1	-7%	-7%[11.5 µM]
CCN(Cc1ccncc1)C(=O)C(CO)c1ccccc1 (stereo not drawn)	nt	-2%
COC(=O)c1c(C)oc2ccc(N(C(=O)c3ccncc3)S(=O)(=O)c3cc(C)c(C)cc3C)cc12	?	13µM*

Next structures
SMILES	PMP22 txn	HTT promoter inh
CCOc1ccc(NC(=O)C2CCN(c3nc4ccccc4[nH]3)CC2)cc1	-14%	2%
CC(=O)N1CCCc2cc(S(=O)(=O)N3CCN(c4ccc(F)cc4)CC3)ccc21	?	?
C[C@@H](CN1CC(=O)NC(=O)C1)N1CC(=O)NC(=O)C1	nt	-22%&6%
Cc1ccc(CC(=O)NCc2nc(-c3cccc(C)c3)no2)cc1	-11%	-6%
CCOc1ccc(NC(=O)c2cn(C3CCCCC3)c(=O)c3c2c2ccccc2n3C)cc1	-21%	-9%
COc1cc2c(cc1OC)C(COc1ccc3c(C)cc(=O)oc3c1)N(C(=O)Cc1ccc(F)cc1)CC2 (stereo not drawn)	-24%	-17%
COc1cccc(NC(=O)CN2C(=O)c3cccnc3Oc3ccc(Cl)cc32)c1	-14%	-3%
CCc1nnc2c(NCc3ccccc3OC)nc3ccccc3n12	-8%	2%
CCc1ccc(-c2nc(SCC(=O)NCC3CCCO3)c(-c3ccc(F)cc3)[nH]2)cc1 (stereo not drawn)	-1%	-17%
COc1ccc(OC)c(CNC(=O)c2cc3c(Cl)nc4ccccc4c3s2)c1	-22%	-14%
CCOc1ccc(-n2cc(C(=O)Nc3ccccc3OCC)c3cc(OC)c(OC)cc3c2=O)cc1	-3%	-25%
CCOC(=O)c1c(S(=O)(=O)N2CCC(C(=O)N3CCN(c4cccc(C)c4C)CC3)CC2)c(C)n(C)c1C	?	?
CC(C)CCN1C(=O)N(c2ccccc2)C(=O)C1CC(=O)Nc1ccc(Cl)cc1 (stereo not drawn)	0%	?
COc1ccc(-c2cc(-c3ccc(C)cc3)nc3c2COc2ccccc2-3)cc1	-2%	-7%
O=C(Cc1cccs1)NC1CC(=O)N(c2ccccc2)C1 (stereo not drawn)	-1%	-13%
CCOc1ccccc1NC(=O)C1CCCN(S(=O)(=O)c2ccc3c(c2)CCCN3C(C)=O)C1 (stereo not drawn)	-23%	?
CCCCN(CCCC)CCNC(=O)c1cc(-c2cccnc2)nc2ccc(S(=O)(=O)N3CCC(C)CC3)cc12	-3%	3%
COc1ccc(CNC(=O)c2cc3sccc3n2Cc2ccc(F)cc2)cc1	-36%	?
COCCNC(=O)CCCn1c(SCc2ccccc2Cl)nc2c(sc3ccccc32)c1=O	?	-10%
Cc1ccc(NC(=O)C(=O)NCC(c2ccc3c(c2)OCO3)N2CCN(C)CC2)c(C)c1 (stereo not drawn)	-4%	-19%
CCNC(=O)c1c2c(nc3ccccc13)C(=O)N(C1CCCCC1)C2	-1%	-7%
COc1ccccc1C1Nc2c(sc3nc(C)cc(C)c23)C(=O)N1c1ccccc1 (stereo not drawn)	-18%	37%[activator]
O=C(CCn1cnc2ccccc2c1=O)NCc1ccccc1	-4%	1%
COc1cccc(NC(=O)C(=O)NCCc2sc(-c3cccc(C)c3)nc2C)c1	?	43%[activator]
COc1ccc(-c2noc(-c3cc(-c4ccc(F)cc4)n[nH]3)n2)cc1	-4%	?

Exported with each value named: part of the list above
CCc1ccc(-c2nc(SCC(=O)NCC3CCCO3)c(-c3ccc(F)cc3)[nH]2)cc1 (stereo not drawn)
  PMP22 txn: -1%; HTT promoter inh: -17%
COc1ccc(OC)c(CNC(=O)c2cc3c(Cl)nc4ccccc4c3s2)c1
  PMP22 txn: -22%; HTT promoter inh: -14%
CCOc1ccc(-n2cc(C(=O)Nc3ccccc3OCC)c3cc(OC)c(OC)cc3c2=O)cc1
  PMP22 txn: -3%; HTT promoter inh: -25%

Reprinted at random: 4 entries already listed, in no set order.
SMILES	PMP22 txn	HTT promoter inh
CCc1nn2c(=O)c(S(=O)(=O)Nc3ccc(C(C)C)cc3)c(C)nc2s1	-23%	?
COc1cccc(NC(=O)CN2C(=O)c3cccnc3Oc3ccc(Cl)cc32)c1	-14%	-3%
CCOc1ccc(-n2cc(C(=O)Nc3ccccc3OCC)c3cc(OC)c(OC)cc3c2=O)cc1	-3%	-25%
CCOC(=O)N1CCc2c(sc3c2c(=O)n(-c2ccc(CC)cc2)c(=O)n3CC(=O)c2ccccc2)C1	-4%	?

Additional structures.
SMILES	PMP22 txn	HTT promoter inh
Cc1ccc2nc(-c3ccc(O)cc3)c(Nc3ccc(Cl)cc3)n2c1	-35%	-14%
O=C(CSc1nnc(-c2ccccc2)o1)c1cccc([N+](=O)[O-])c1	-13%	-1%
Cc1ccc(N(C)S(=O)(=O)c2ccc3[nH]cc(C(=O)O)c(=O)c3c2)cc1C	0%	-1%
CC(=O)c1ccc(N2CCN(C(=O)C3CCN(S(=O)(=O)c4c(C)noc4/C=C/c4ccccc4F)CC3)CC2)cc1	5%	?
COc1ccc(-c2cc(C(F)(F)F)nc(SCC(=O)N3CCC(C)CC3)n2)cc1	?	-3%
O=C(CCCc1nc(-c2ccco2)no1)Nc1ccccc1[N+](=O)[O-]	-10%	-8%
Cn1c(=O)[nH]c(=O)c2c1nc(CN1CCN(c3ccccc3F)CC1)n2Cc1ccc(F)cc1	?	-12%
CCOC(=O)c1ccc(N2C(=O)c3n[nH]c(C)c3C2c2ccc(OCC)cc2)cc1 (stereo not drawn)	?	?
C[C@@H](O[C@H]1OCCN(Cc2n[nH]c(=O)[nH]2)[C@@H]1c1ccc(F)cc1)c1cc(C(F)(F)F)cc(C(F)(F)F)c1	nt	?
CC(=O)N[C@@H](CCC(=O)O)C(=O)O	nt	0%
CC(C)c1ccc(OC(=O)c2cc(-c3ccc4c(c3)OCCO4)on2)cc1	-9%	-13%
CCOc1ccccc1NC(=O)CN1Cc2ccccc2C1=O	2%	-16%
CN(CC(=O)Nc1ccccc1Cl)S(=O)(=O)c1ccc(C(=O)N2CCOCC2)s1	-16%	?
COc1ccccc1CNC(=O)c1ccc2c(c1)nc(C)n2-c1ccccc1OC	5%	-1%
CCN(CC)c1nc2c(-c3cccc(Br)c3)nnn2c2ccccc12	3%	37%[activator]
COc1cc(NC(=O)c2cc3ccc4cccnc4c3[nH]2)cc(OC)c1OC	0%	13%
COc1ccc(-c2oc3ncn4nc(-c5ccc(Cl)cc5)nc4c3c2-c2ccc(OC)cc2)cc1	-4%	-10%
COc1ccc(Br)cc1CNC(=O)c1ccc2c(c1)nc1n2CCC(C)C1 (stereo not drawn)	9%	13%
CC(CNC(=O)C1CCN(Cc2cc3ccccc3n2Cc2ccccc2)CC1)c1ccccc1 (stereo not drawn)	?	-25%
O=C(CCC1N=C2c3ccccc3N=C(SCc3ccccc3Cl)N2C1=O)NCc1cccs1 (stereo not drawn)	-5%	-12%
COc1ccc(N2CCN(C(=O)c3noc4c3CCCCC4)CC2)cc1	-8%	9%
CCc1ccc(NC(=O)c2cc3nc(-c4ccc(C)cc4)cc(C(F)(F)F)n3n2)cc1	7%	-2%
O=C(CCS(=O)(=O)c1nc(-c2cccs2)cc(C(F)(F)F)n1)Nc1ccc(F)c(Cl)c1	15µM*	?

Screening results from PubChem BioAssay.
